High-throughput results from PubChem.
Vaccinia Venus: inhibitors of vaccinia virus (Venus reporter) | Vaccinia virus Venus reporter expression, fluorescence | 330,000 compounds, 0.46% hits | Potency, µM (titrated, usually from 36.5 µM), inactives show at the top dose activity change, negative = inhibition, hits mostly inhibitors; active means well fitted inhibition curve with a large enough effect; inconclusive means small, poorly fitted or top-dose-only effect; inactive means no such curve, though single readings can be large or run the other way; tested in A549 cells; also: nearly all actives have a fitted effect of over 30% in size; inactives centre near -10
VACV mCherry inh: inhibitors of vaccinia virus infection (mCherry reporter signal); Vaccinia virus mCherry reporter infection, fluorescence; about a quarter of the inactives have no number; 310,000 compounds, 0.63% hits; Potency, µM (top dose mostly 36.5 µM), without a hit: at the top dose activity change, negative = inhibition, usual class: inhibitors; active = well fitted inhibition curve with a large enough effect; inconclusive = small, poorly fitted or top-dose-only effect; inactive = no such curve, though single readings can be large or run the other way; tested in A549 cells; also: nearly all actives have a fitted effect of over 35% in size; inactives centre near -10
The depositor's hits bear a star; i = inactive; ? = inconclusive; nt = no result given; [ ] = dose if it differs, or a comment. % is scaled to controls: 0 for no effect and ±100 for the full control effect; potency is read from the fitted curve at half-maximal effect.

Results follow in this order: Vaccinia Venus, VACV mCherry inh
Cc1ccc(S(=O)(=O)/C=C2\NC(=O)CS2)cc1
→ -1%, nt
CC(=O)c1ccc(NC(=O)C[n+]2ccc(N(C)C)cc2)cc1
→ -4%, -30%
Cc1cccc(-c2noc(C3CC(=O)N(c4ccc5c(c4)OCCO5)C3)n2)c1 (stereo unspecified)
→ -6%, -1%
CCOC(=O)c1oc2ccc(S(=O)(=O)n3nc(-c4ccc(Cl)cc4)cc3N)cc2c1C
→ ?, -5%
O=C(COC(=O)Cc1c(Cl)cccc1Cl)Nc1ccc2[nH]c(=O)[nH]c2c1
→ -7%, -20%
COc1ccc(OC)c(S(=O)(=O)Nc2c(NC3CCCCC3)c3ccccc3oc2=O)c1
→ -11%, -13%
Cc1ccc(N(CC(=O)NCc2ccc(F)cc2)C(=O)c2snc(C(N)=O)c2N)cc1C
→ -11%, 0%
CCCCN(C)S(=O)(=O)c1ccc(C(=O)Nc2ccc(-c3nc4ccc(C)cc4s3)cc2)cc1
→ -1%[7.34 µM], -10%[7.34 µM]
COc1ccc(S(=O)(=O)N(C)c2ccc(C(=O)Nc3ccccc3C(=O)N3CCOCC3)cc2)cc1
→ -14%, -6%
CCc1[nH]nc2c1C(c1cccc(OC(=O)N3CCOCC3)c1)C(C#N)=C(N)O2 (stereo unspecified)
→ 2%, -21%
O=C(COC(=O)c1ccc([N+](=O)[O-])cc1)Nc1cccnc1Cl
→ -15%, -13%
O=C(O)c1cc(N/C(=N\S(=O)(=O)c2ccc(F)cc2)c2ccccc2)ccc1O
→ -9%, -13%
S=C(NCCN1CCOCC1)N1CCN(c2cccc(Cl)c2)CC1
→ -29%, -13%
CCS(=O)(=O)N1Cc2ccccc2CC1C(=O)N(C)CC(=O)Nc1ccc(F)c(F)c1F (stereo unspecified)
→ -9%, -11%
COc1cccc(-c2cc(C(=O)Nc3ccc(OC)cc3OC)no2)c1
→ -7%, -9%
O=C(CNS(=O)(=O)c1ccc(Br)cc1)NC1CCCC1
→ -16%, i
CCc1ccc(NC(=O)CCN2C(=O)c3cccnc3C2=O)cc1
→ -8%, -12%
C[C@H]1CN([C@@H](C)CO)C(=O)CCCn2nncc2CO[C@H]1CN(C)C(=O)c1ccncc1
→ -14%, -17%
COc1ccc(S(=O)(=O)N2CCN=C2SCc2cccc(F)c2)cc1
→ -8%, -2%
O=C(/C=C/c1ccccc1Cl)N(c1ccccn1)C1CCCCC1
→ -1%, -15%
Cc1c(C(=O)NCCN2CCOCC2)oc2ccccc12
→ -4%, -7%
O=[N+]([O-])c1ccc(Sc2cccc3cccnc23)cc1
→ -7%, -15%
CCOc1ccc2[nH]c(=O)c(CN(CCc3ccccc3)C(=O)N3CCOCC3)cc2c1
→ -3%, -11%
CCOC(=O)C(=CNc1ccccc1Cl)C(=O)OCC
→ ?, -10%
Cc1ccc(/C=N/NC(=O)CSc2nnc(-c3ccc(Cl)cc3)n2-c2ccccc2)o1
→ 11%, -11%
COc1cc(C2c3[nH]c4ccccc4c3C[C@@H]3C(=O)N(Cc4ccco4)CC(=O)N23)cc(OC)c1OC (stereo partly specified)
→ ?, ?
CC1CCC(NC(=O)c2ccc(NC(=O)CC3SC(N4CCCC4)=NC3=O)cc2)CC1 (stereo unspecified)
→ -5%, -9%
CCNC(=O)C1(C)CCN(Cc2cccc(Oc3ccccc3)c2)C1 (stereo unspecified)
→ -8%, i
CCOC(=O)Oc1ccc2c(c1)C(C)=CC(C)(C)N2C(=O)OCC
→ -16%, i
Cc1ccsc1C(=O)NNC(=O)CCN1CCN(c2ccccc2)CC1
→ -19%, i

Molecules listed so far that contain two or more sulfur atoms, in the order listed:
Results follow in this order: Vaccinia Venus, VACV mCherry inh
Cc1ccc(S(=O)(=O)/C=C2\NC(=O)CS2)cc1
→ -1%, nt
CCCCN(C)S(=O)(=O)c1ccc(C(=O)Nc2ccc(-c3nc4ccc(C)cc4s3)cc2)cc1
→ -1%[7.34 µM], -10%[7.34 µM]
COc1ccc(S(=O)(=O)N2CCN=C2SCc2cccc(F)c2)cc1
→ -8%, -2%

(list continues)
Results follow in this order: Vaccinia Venus, VACV mCherry inh
O=C(NC1CCCCC1)NS(=O)(=O)c1ccc2c(c1)CCC2
→ -4%, -13%
CC1CCCN(c2nc3nonc3nc2Nc2ccccc2F)C1 (stereo unspecified)
→ -8%, i
CCOc1ccc(-c2nc(CSCC(=O)NCCc3ccc(OCC)c(OCC)c3)c(C)o2)cc1
→ ?, ?
COc1ccc(CN2CCN(S(=O)(=O)c3ccc(C)cc3)CC2)cc1OC
→ -13%, -20%
C#CCN(C[C@@H]1[C@@H](OC(=O)NC2CC2)[C@@H](OC(=O)NC2CC2)CN(C(=O)OC(C)C)N1C(=O)OC(C)C)S(=O)(=O)c1ccc(C)cc1
→ -25%, -9%
CCn1nc(-c2ccccc2)c(-c2ccccc2)c(C(=O)Nc2ccc(NC(C)=O)cc2)c1=O
→ -6%, -10%
C[N+](C)(CC#Cc1ccccc1)CC(=O)c1ccccc1
→ -18%, -25%
CC(C)NC(=O)C1(C)CCCCN1Cc1ccc(OCc2ccccc2)cc1 (stereo unspecified)
→ -8%, -12%
Cc1ccc(N(C(=O)c2ccc(Br)o2)C2C=CS(=O)(=O)C2)cc1 (stereo unspecified)
→ -9%, 36%[activator]
Cn1c(=O)oc2cc(S(=O)(=O)N3CCCC(C(=O)NCCc4ccc(Cl)cc4)C3)ccc21 (stereo unspecified)
→ 2%, -5%
CN(CC(=O)Nc1ccc(N2CCOCC2)cc1)C(=O)c1cc(S(=O)(=O)N(C)C)ccc1Cl
→ -16%, -1%
O=C(NC(=S)NCC1CCCO1)c1cccc([N+](=O)[O-])c1 (stereo unspecified)
→ -13%, -9%
CCOC(=O)c1c(Oc2ccc(OC)cc2)nnc(-c2ccccc2)c1-c1ccccc1
→ -11%, -18%
COc1ccc(NC(=O)C2CC(=O)N(C)C(=Nc3ccc4c(c3)OCO4)S2)cc1 (stereo unspecified)
→ -3%, i
Cc1csc(NC(=O)C2=NN(c3ccccc3)C(=O)CC2)n1
→ -6%, i
COc1ccc(CNC(=O)CN2C(=O)NC3(CCCc4sccc43)C2=O)cc1 (stereo unspecified)
→ -14%, i
COc1ccc(C(=O)Cn2nnc(-c3ccccc3F)n2)cc1
→ -3%, -7%
COc1ccc(Cl)cc1NC(=O)c1c(C(=O)Nc2cccc(C)c2C)sc2nc(C)cc(=O)n12
→ 8%, -1%
CS(=O)(=O)c1ccc(Cl)c(NC(=O)COC(=O)CNC(=O)c2ccc3ccccc3c2)c1
→ -3%, 0%
Cc1cccc(OC(=O)CSc2nnc(CNC(=O)c3ccccc3)o2)c1C
→ -18%, -14%
CCCCCCCCCCOC(=O)Cn1c(COc2ccccc2C)[n+](C)c2ccccc21
→ 28µM*, ?
COc1ccc(N2C(=O)c3ccccc3NC(=O)C2C(=O)Nc2ccc(N3CCOCC3)cc2)cc1 (stereo unspecified)
→ 0%, ?
O=C(Nc1ccc(C(F)(F)F)cc1-c1ccccc1)c1ccccc1
→ -19%, i
COc1cc(CC(=O)OCC(=O)Nc2ccc(S(=O)(=O)N3CCCC3)cc2)cc(OC)c1OC
→ -6%, nt
CCOC(=O)c1ccc(OC(=O)CCCCCN=C(N)N)cc1
→ -10%, i
Cc1ccc(N2CCC(N3CCN(C)C(CCO)C3)CC2)cc1 (stereo unspecified)
→ 6%, i
CN(C)CCCNC(=O)/C(=C\C=C\c1ccccc1)NC(=O)c1ccc([N+](=O)[O-])cc1
→ -16%, ?
COCCCNC(NC(=O)c1ccc(Br)cc1)C(Cl)(Cl)Cl (stereo unspecified)
→ -16%, -20%
CCOC(=O)c1ccc(NS(=O)(=O)c2ccc(Br)s2)cc1
→ -1%, 2%
COc1ccccc1CNCc1cc(OC)c(OC)c(OC)c1
→ 7%, -3%
Cc1noc(NS(=O)(=O)c2ccc(N/C=C/C(=O)c3ccncc3)cc2)c1C
→ -10%, i
CC(C)(C)NC(=O)c1ccc(NC(=O)CSc2ccccc2)cc1
→ -12%, i
Cc1ccc(SC(=O)c2c([N+](=O)[O-])c(C)nn2C)cc1
→ -12%[7.34 µM], -21%[7.34 µM]
C[C@H]1[C@@H](c2ccccc2)O[C@@H](c2ccccc2Br)N1C
→ -6%, i
Cc1cn2c(=O)c(C(=O)N3CCN(c4ccccc4Cl)CC3)cnc2s1
→ -16%, -19%
Cc1ccc2cccc(NC(=O)c3ccc(C#N)cc3F)c2n1
→ -8%, -2%
CC1Cc2nc(SCC(=O)N3CCCc4ccccc43)n(C)c(=O)c2S1 (stereo unspecified)
→ -24%, i
O=C(Nc1ccc(-c2cc(C(F)(F)F)nn2-c2ccccc2)cc1)c1cccc(F)c1
→ ?, -9%
CNS(=O)(=O)c1cccc(C(=O)OCC(=O)Nc2ccc(Cl)cc2F)c1
→ -6%, -13%
Cc1ccc(S(=O)(=O)N/N=C\c2cc3c(cc2Br)OCO3)cc1
→ ?, -34%
Cc1sc2ncnc(N3CCC(C(=O)NNC(=O)COc4ccccc4Cl)CC3)c2c1C
→ -23%, ?
Cc1ccc(Oc2c(C)nc(-c3ccccc3)[nH]c2=O)cc1
→ -11%, i
c1coc(-c2cc3nc(NC4CCCCC4)ccn3n2)c1
→ -1%, -6%
CC(C)(C)NS(=O)(=O)c1ccc(NC(=O)Cc2ccccc2[N+](=O)[O-])cc1
→ -7%, -7%
Cc1ccc(-c2c[n+](CC(=O)OCc3ccccc3)c3n2CCC3)cc1
→ -1%, -15%

3 entries from above, arranged by formula weight, low to high:
Results follow in this order: Vaccinia Venus, VACV mCherry inh
c1coc(-c2cc3nc(NC4CCCCC4)ccn3n2)c1
→ -1%, -6%
Cc1cn2c(=O)c(C(=O)N3CCN(c4ccccc4Cl)CC3)cnc2s1
→ -16%, -19%
Cc1ccc(S(=O)(=O)N/N=C\c2cc3c(cc2Br)OCO3)cc1
→ ?, -34%

2 consecutive compounds from above:
Results follow in this order: Vaccinia Venus, VACV mCherry inh
Cc1cn2c(=O)c(C(=O)N3CCN(c4ccccc4Cl)CC3)cnc2s1
→ -16%, -19%
Cc1ccc2cccc(NC(=O)c3ccc(C#N)cc3F)c2n1
→ -8%, -2%

(cont.)
Results follow in this order: Vaccinia Venus, VACV mCherry inh
O=C(COc1ccc(Cl)cc1)Nc1ccc2nc(SCC(=O)N3CCCC3)sc2c1
→ -10%, 0%
COc1ccc(C2CC2/C(=N/O)c2ccccn2)cc1 (stereo unspecified)
→ 1%, ?
O=C(c1cc2ccccc2o1)N1CCN(S(=O)(=O)c2cccs2)CC1
→ -14%, nt
COc1ccc(OC)c(-c2noc(CSc3nnc(Cc4ccccc4)n3-c3cccc(C)c3)n2)c1
→ -9%, -13%
CCOC(=O)C1=NNC2C(=O)N(CC)C(=O)C12 (stereo unspecified)
→ -10%, nt
O=C(OCc1ccccc1)/C(=C(\O)c1ccccc1Br)c1ccc(-c2ccccc2)cn1
→ -6%, -12%
O=C(C1=C[C@H](c2ccc(C(F)(F)F)cc2)C[C@H](OCc2ccc(CO)cc2)O1)N1CCN(Cc2ccc3c(c2)OCO3)CC1
→ ?, -28%
COc1ccc(NCC(=O)N/N=C/c2ccc3c(c2)OCCO3)cc1
→ -14%, -23%
COc1ccc2c(c1)c(=O)c(C(=O)c1ccc(Cl)cc1)cn2CC(=O)Nc1ccc2c(c1)OCCO2
→ ?, ?
CCC(C(=O)Nc1ccc(F)cc1F)n1nc(-c2ccccc2)c2c(c1=O)CCCC2 (stereo unspecified)
→ -7%, -6%
NCC(O)c1ccc(O)c(O)c1 (stereo unspecified)
→ -10%, i
O=S(=O)(c1cccc(Cl)c1)N1CCC(c2nc3ccccc3[nH]2)CC1
→ -26%, ?
COc1cccc(NC(=O)CN(C)C(=O)c2ccc(N3CCOCC3)c([N+](=O)[O-])c2)c1
→ -9%, -16%
Cc1ccc(C)c(NC(=O)/C(C#N)=C/c2ccc(C(C)C)cc2)c1
→ -1%, 5%
COc1ccc(Cl)cc1NC(=O)CN1CCCCCC1
→ -11%, i
Cc1ccccc1C(=O)Nc1ccc2c(c1)C(=O)NC2=O
→ -5%, i
CCOC(=O)C(CC)Sc1ccc2nnc(-c3ccc(F)cc3)n2n1 (stereo unspecified)
→ 6%, -21%
Cc1ccc(-c2nnc(SCC(=O)N3CC(C)CC(C)C3)o2)cc1C (stereo unspecified)
→ -1%, -17%
CCCCCCSc1cc(-c2nc3cnccn3c2NCCCC)ccc1OC
→ ?, i
COC(=O)C1=C(N)OC(C)=C(C(C)=O)C12C(=O)N(C)c1ccccc12 (stereo unspecified)
→ -3%, i
COC(=O)CCC(=O)OC1(C)C(=O)C=C2C=C(C3CC3)N(Cc3ccc(OC)cc3)C=C2C1=O (stereo unspecified)
→ 3%, -5%
O=C(NCc1ccco1)c1cccc2c(-c3ccc(F)c(F)c3)coc12
→ 3%, 3%
COc1cc(C2Nc3ccccc3-c3nnc(SCc4ccc(C)cc4)nc3O2)cc(OC)c1O (stereo unspecified)
→ 0%, 0%

Single entries from above:
`Cc1ccccc1C(=O)Nc1ccc2c(c1)C(=O)NC2=O` – Vaccinia Venus = -5%
`COC(=O)CCC(=O)OC1(C)C(=O)C=C2C=C(C3CC3)N(Cc3ccc(OC)cc3)C=C2C1=O` (stereo unspecified) – VACV mCherry inh = -5%
`O=C(NCc1ccco1)c1cccc2c(-c3ccc(F)c(F)c3)coc12` – Vaccinia Venus = 3%
